Assay outcomes (PubChem BioAssay)
Choline anaer gr – choline-fed anaerobic bacterial growth inhibition. 0.2% of 55,000 active. Gram-negative bacterium anaerobic choline minimal medium, absorbance growth; active compounds read low; many inactives read as strong as hits in the columns shown. calls only;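 active = growth z-score on choline under -2 at 7 or 20 h with little or no fall on glycerol, limits in tiers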;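 note: stock transfer was 300 nL into about 50 µL; the organism is E. coli; final concentration not given here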
Choline anaer gr early – further read-out of Choline anaer gr, marked with its call; z-score; measured here: choline growth z-score, timepoint 1;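 score of optical density at 7 h as mean of two plates; lower means less growth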
* hit, by the source's call; i = inactive; & = joins results of further samples. A portion of the library (hit frequency here may not be typical).

SMILES	Choline anaer gr	Choline anaer gr early
Cc1cc(C)n(-c2nc3c(c(=O)n2CC(=O)N2CCCCC2)CCC3)n1	i	0.61
Cc1nn(-c2ccccc2)cc1-c1noc(C(=O)NCc2ccccn2)n1	i	-0.92
Cc1onc(-c2cccc(Br)c2)c1C(=O)NCCN(C)C	i	-0.46
N#CC1=CN(c2ccc(Cl)c(Cl)c2)c2ccc(F)cc2S1(=O)=O	i	0.5
O=C(C1CCN(Cc2c[nH]c3ccc(Cl)cc23)CC1)N1CCCCC1	i	-1.82
CN(C(=O)c1cc2c(=O)oc3ccccc3c2n1C)c1cccc(Cl)c1	i	1.02
COc1cc2c(cc1OC)C(c1ccccc1)=NC1(CCCC1)C2	i	-1.59
O=C(c1cc2c(s1)-c1ccsc1CC2)N1CCN(c2ccccn2)CC1	i	0.22
O=C(O)CCc1nc2cccnc2n1C1CC1	i	-1.47
O=c1c2sccc2n2c(SCc3ccc(Cl)cc3)nnc2n1CC1CCCO1 (stereo not given)	i	-0.02
O=S(=O)(NC1CCCCCC1)c1ccc(-c2nnc(C3CCCC3)o2)o1	i	0.94
O=C(COc1ccc(F)cc1)Nc1noc(-c2ccc(Cl)cc2)n1	i	-1.36
CCN(CC)S(=O)(=O)c1cc(C(=O)N2CCCC2)cs1	i	0.48
COc1ccccc1Cn1cnc2c([nH]c3ccc(F)cc32)c1=O	i	-0.47
O=C(CCc1nc(-c2ccncc2)no1)Nc1cccnc1	i	-0.96
Cc1cccc(NC(=O)c2cnn3c2NC(C(=O)O)=CC3c2ccccc2Br)c1 (stereo not given)	i	-0.02
O=C(O)CCCCCC[C@H]1C(=O)NC(=O)N1CCC(O)C1CCCCC1 (stereo not given in full)	i	-0.07
COc1ccc(S(=O)(=O)[C@H]2CS(=O)(=O)C[C@@H]2N2CCc3ccccc3C2)cc1	i	-0.89
COc1ccccc1CNC(=O)C1CCN(S(=O)(=O)c2ccc3nc4c(c(C(=O)O)c3c2)CCCC4)CC1	i	0.17
Cc1ccc(-c2nn(C(C)C(=O)Nc3cccc(C)c3C)c(=O)c3c2CCCC3)cc1S(N)(=O)=O (stereo not given)	i	0.79
CCOc1c(C)cnc2c1c(=O)n(CC)c(=O)n2C	i	-1.83
Cc1noc(C)c1C1CCCN1Cc1ccccc1OC(C)C (stereo not given)	i	0.14
CCC(=O)N1CCCCC1CCN1CCCCC1 (stereo not given)	i	0.66
Cc1ccc(C(=O)Nc2c(C(=O)NCC3CC3)[nH]c3ccc(C)cc23)cc1	i	0.79

Single entries from the entries so far.
Reading of Cc1ccc(-c2nn(C(C)C(=O)Nc3cccc(C)c3C)c(=O)c3c2CCCC3)cc1S(N)(=O)=O (stereo not given) in Choline anaer gr early: 0.79
Reading of COc1ccc(S(=O)(=O)[C@H]2CS(=O)(=O)C[C@@H]2N2CCc3ccccc3C2)cc1 in Choline anaer gr early: -0.89

(further entries)
SMILES	Choline anaer gr	Choline anaer gr early
CCOC(=O)Cn1cnc2c(sc3nc(C)cc(C)c32)c1=O	i	-1.3
Cc1cc(-c2csc(S(=O)(=O)NCCCN3CCN(C)CC3)c2)on1	i	-1.29
O=C(Nc1ccccc1)N1CCCCCC1c1cccs1 (stereo not given)	i	0.42
CC(=O)Nc1ccccc1-c1nnc(SC(C)C(=O)Nc2ccc(F)cc2)[nH]c1=O (stereo not given)	i	-0.94
Cc1cc(C2CCCN2C(=O)NCC(C)C)on1 (stereo not given)	i	-1.46
CCc1nc(-c2csc(S(=O)(=O)N3CCC(C(=O)NC(C)CC)CC3)c2)no1 (stereo not given)	i	-0.14
O=C(CCC(=O)N1CC(c2ccccc2)Oc2cccnc21)NCc1ccccc1 (stereo not given)	i	0.76
O=C(Nc1nc2ccccc2s1)NC1CC(=O)N(c2ccc3c(c2)OCCO3)C1 (stereo not given)	i	0.87
Cc1ccc(-c2csc(Cc3nc(-c4ccc(F)cc4)no3)n2)c(C)c1	i	-0.18
Cc1cc(NC(=O)c2cnccn2)ccc1-c1nc2ccccc2s1	i	0.31
OCc1ccc(-c2nn(Cc3ccccc3)c3ccccc23)o1	i	0.23&0.71
COc1ccc(C2CC(=O)C3=C(C2)Nc2onc(C)c2C3c2cccc(Br)c2)cc1OC (stereo not given)	i	0.33

An excerpt from above in order of SMILES length, ascending:
SMILES	Choline anaer gr	Choline anaer gr early
Cc1cc(C2CCCN2C(=O)NCC(C)C)on1 (stereo not given)	i	-1.46
OCc1ccc(-c2nn(Cc3ccccc3)c3ccccc23)o1	i	0.23&0.71
CCOC(=O)Cn1cnc2c(sc3nc(C)cc(C)c32)c1=O	i	-1.3
Cc1cc(NC(=O)c2cnccn2)ccc1-c1nc2ccccc2s1	i	0.31
Cc1ccc(-c2csc(Cc3nc(-c4ccc(F)cc4)no3)n2)c(C)c1	i	-0.18

Continuation:
SMILES	Choline anaer gr	Choline anaer gr early
Fc1ccccc1N1CCN(c2nccn3nc(-c4ccc(Br)cc4)cc23)CC1	i	0.23
O=C1CSC(c2cccnc2)N1c1ccc(F)cc1 (stereo not given)	i	0.79
CC(C)n1c(=O)[nH]c2cc(-c3noc(/C=C/c4ccccc4)n3)ccc21	i	2.42
O=C(Nc1ccc(Br)cc1F)c1ccc(CN2CC(=O)N3CCCCC3C2=O)cc1 (stereo not given)	i	-1.39
COc1ccc2cc(C(=O)Nc3ccc(OC)c(NC(=O)c4ccccc4C)c3)[nH]c2c1	i	0.63
Cc1noc(C)c1CCNC(=O)CCCc1nnc(C(=O)Nc2cccc(Cl)c2)s1	i	-1.44
COc1nc2ccccc2nc1N1CCC(C(=O)n2nc(C)cc2C)CC1	i	-0.71
CC(C)(C)c1csc(-c2csc(S(=O)(=O)Nc3ccc(F)cc3)c2)n1	i	-1.48
CCCS(=O)(=O)NC1CCCN(c2cc(N3CCCC3)ncn2)C1 (stereo not given)	i	1.02
O=C(Nc1ccc2c(c1)OCCO2)C1CCCN(c2nc3ccccc3nc2C(F)(F)F)C1 (stereo not given)	i	1.57
CCCCN(CC)C(=O)C1CCCN(c2ccc(-c3ccccc3)nn2)C1 (stereo not given)	i	0.7
CCOC(=O)CNC(=O)CC(c1ccc(F)cc1)N1Cc2ccccc2C1=O (stereo not given)	i	-0.34
O=C(CN1CCN(Cc2ccc(F)cc2Cl)C1=O)NCCCN1CCN(c2ccccc2F)CC1	i	-0.31
CCc1nnc2c3ccccc3nc(Nc3cc(Cl)c(OC)cc3OC)n12	i	1.75
Cc1ccc(-c2ccc3nncn3n2)cc1S(=O)(=O)Nc1ccc(Oc2ccccc2)cc1	i	0.52
O=C(c1ccc(Cn2c(=O)c3cccn3c3cccnc32)cc1)N1CCN(c2ccc(Cl)cc2)CC1	i	0.42
CCS(=O)(=O)N1CCCN(C2=NS(=O)(=O)C(c3ccccc3)=C2C)CC1	i	1.31
CCN(CC)S(=O)(=O)c1ccc2nc(NC(=O)c3cncc(Br)c3)sc2c1	i	0.82
CCOC(=O)c1nc(Nc2cc(Cl)ccc2C)c2ccccc2n1	i	-1.29
COc1cccc(NC(=O)Cn2c(=O)nc(NCc3ccccc3)c3ccccc32)c1	i	0.26
CC(=O)N1CCCc2cc(S(=O)(=O)N3CCCC(C(=O)NCCN4CCc5ccccc5C4)C3)ccc21 (stereo not given)	i	0.48
O=C(NCCc1c[nH]c2ccccc12)C(=O)NCC(c1cccnc1)N1CCOCC1 (stereo not given)	i	0.26
O=C(c1cc(-c2ccc(F)cc2)n[nH]1)N1CCN(S(=O)(=O)c2ccccc2)CC1	i	0.9
Cc1cc(C)c2c(n1)SCCN2C(=O)Nc1ccc(Br)cc1	i	0.85
CC(=O)Nc1cccc(N2CC(C(=O)Nc3cccc(Br)c3)CC2=O)c1 (stereo not given)	i	-1.13
Cc1cc(C(=O)NC2CCCCC2)c2c(=O)n(C)c(=O)n(C)c2n1	i	-1.41
O=C(CCc1nc(-c2ccc(N3CCCC3)cc2)no1)NCc1ccc2c(c1)OCO2	i	2
COc1cccc(N2CCN(c3ccnc(SCC(=O)Nc4cc(C)cc(C)c4)n3)CC2)c1	i	0.91
COC(=O)c1[nH]cc(-c2ccccc2)c1N	i	-0.03
Cc1ccc(Cl)cc1N1CCN(C(=O)C2CCN(Cc3nc(-c4ccc(Cl)cc4)oc3C)CC2)CC1	i	-0.79
O=C(NC1CCCCC1)C1CCN(c2ccc(-c3ccc(F)cc3)nn2)CC1	i	0.03
Cc1nc(CN2C(=O)COc3ccc(S(=O)(=O)NCCC(C)C)cc32)no1	i	-1.26
O=c1c2cc3c(nc2ncn1Cc1ccccc1)CCCC3	i	-0.99
CCOc1ccccc1NC(=O)CSc1nc(N)cc(N)n1	i	0.06
CCN1CCN(C(=O)C2CCN(c3nn4cc(-c5ccc(F)cc5)nc4s3)CC2)CC1	i	0.41
Cc1cccc2c(C(=O)Nc3ccc4c(c3)C(=O)N(C)C3=NCCN34)cc(-c3ccccc3)nc12	i	-1.02

Reprinted from the part before: 3 compounds; new compounds follow.
SMILES	Choline anaer gr	Choline anaer gr early
CCOc1ccccc1NC(=O)CSc1nc(N)cc(N)n1	i	0.06
CCN1CCN(C(=O)C2CCN(c3nn4cc(-c5ccc(F)cc5)nc4s3)CC2)CC1	i	0.41
Cc1cccc2c(C(=O)Nc3ccc4c(c3)C(=O)N(C)C3=NCCN34)cc(-c3ccccc3)nc12	i	-1.02
CCOCCCNC(=O)N1Cc2c(sc3c2CCCC3)-n2cccc2C1C (stereo not given)	i	0.67
Cn1nc(C(=O)N2CCN(c3ccc(Cl)cc3)CC2)cc1C(F)(F)F	i	0.13
O=C(Nc1cccc(Br)c1)Nc1ccc2nc3n(c(=O)c2c1)CCCC3	i	0.14
CCOC(=O)c1c(S(=O)(=O)Nc2cccnc2)c(C)n(C)c1C	i	-0.37
COc1ccc2[nH]cc(CCNC(=O)c3cc(-c4ccc(NC(C)=O)cc4)nc4ccccc34)c2c1	i	-0.51
O=C(CSc1ncc(-c2ccccc2)o1)Nc1ccc2c(c1)OCCO2	i	0.5
Cn1nc(C(=O)NC2CCCCC2)c2c1-c1cc(Cl)ccc1SC2	i	0.32
CC(C)Cn1cc(C(=O)N2CCC(Cc3ccccc3)CC2)c2c3ccccc3n(C)c2c1=O	i	-0.02
Cc1cc(Cl)ccc1-n1ncc2c(N3CC(C)OC(C)C3)ncnc21 (stereo not given)	i	-0.12
CCOCCCNC(=O)c1csc2c1CCCC2	i	0.05
Cc1c(Cl)cccc1NC(=O)c1ccc(CN2CC(=O)N3CCCCC3C2=O)cc1 (stereo not given)	i	-0.42
O=C(NCc1ccccc1Cl)c1ccc(CN2CC(=O)N3CSCC3C2=O)cc1 (stereo not given)	i	0.05
C=CCn1c(SCC(=O)OCC)nc2sc3c(c2c1=O)CCCC3	i	0.29
O=C(CSc1cc(N2CCCCC2)ncn1)Nc1ccc2c(c1)OCCO2	i	-0.49
O=S(=O)(c1ccc(Cl)cc1)c1nc(-c2ccc(F)cc2)oc1N1CCOCC1	i	-0.4
O=C(Nc1ccc(N2CC=C(c3ccccc3)CC2)c(C(=O)O)c1)c1ccc(Br)cc1	i	0.94
O=C(Cn1cnc2c(sc3ncccc32)c1=O)NCc1ccc2c(c1)OCO2	i	-0.08
COc1ccc(-c2n[nH]c(CCNC(=O)Cc3ccccc3)n2)cc1	i	-0.29
Cc1ccc(C)c(N2CCN(C(=O)C3CCN(S(=O)(=O)c4cccc5nsnc45)CC3)CC2)c1	i	-0.4
CCSc1nn(CC)c2nc3c(c(=O)n12)C(C)(C)Cc1ccccc1-3	i	-0.05
CCC1Cn2c(C(=O)N3CCCC3)cc3cccc(c32)O1 (stereo not given)	i	0.6
O=C1C(=O)N(C2CCN(C(=O)c3cccc(Cl)c3)CC2)CCN1Cc1cccc(F)c1	i	-0.3
c1ccc(-c2noc(-c3ccc(N4CCc5ccccc5C4)nn3)n2)cc1	i	-1.06
CN(C)c1cccc(C(=O)N2CCc3c(c(C(=O)NCc4ccccc4)nn3C)C2)c1	i	-1.06
Cc1nc(SCc2cc(=O)n3cc(C)sc3n2)n[nH]1	i	0.2
CC(C)CNC(=O)c1c(-c2ccccc2)nnc2ccccc12	i	0.49
CCc1ccc2[nH]cc(S(=O)(=O)c3ccc(OC)cc3)c(=O)c2c1	i	1.17
CN1CCCc2cc(C(CNC(=O)c3cccc(Cl)c3)N3CCCC3)ccc21 (stereo not given)	i	-0.05
CCOC(=O)c1cn[nH]c1S(=O)(=O)Nc1ccc(C)cc1C	i	-0.34
O=C(NC1CCCc2ccccc21)C1CCN(c2ccc(-c3ccc(F)cc3)nn2)CC1 (stereo not given)	i	2.12
Cc1nn(-c2ccc3nnc(C)n3n2)c2c1C(c1ccc(C(=O)O)cc1)CC(=O)N2 (stereo not given)	i	-0.88
COc1ccc(-c2cc(C(=O)NCCN3CCOCC3)c3cccc(-c4ccc(F)cc4)c3n2)cc1	i	0.75
NC(=O)COc1ccc(NC(=O)c2nc(-n3cnnc3)ccc2Br)cc1	i	-0.17
CCOC(=O)c1[nH]c(C)c(CN(Cc2ccc(OC)cc2)C(=O)Nc2cccc(OC)c2)c1C	i	1.48
COc1ccc(-c2[nH]ncc2C(=O)NCc2ccccc2)cc1	i	-0.64
O=C(NCc1ccc(S(=O)(=O)N2CCCCC2)s1)C1CC1	i	0.55
CCC(=O)Nc1cc(-c2ccccc2)nn(CC(=O)Nc2ccccc2)c1=O	i	-0.14
O=C(Cn1ccn2nc(-c3ccc4c(c3)OCO4)cc2c1=O)Nc1ccc(Br)cc1F	i	-0.1
O=C(COc1ccccc1-c1nc(-c2ccccc2Cl)no1)N1CCOCC1	i	-0.14
Cn1nnc2cc(-c3noc(CNC(=O)C(c4ccccc4)c4ccccc4)n3)ccc21	i	1.32
